# Screens deposited in PubChem BioAssay by National Center for Advancing Translational Sciences (NCATS).
# MARV entry inh: Marburg virus entry inhibition; Marburg virus pseudotyped entry inhibition, cell reporter; control for the full effect not named in the record; about a third of the inactives were read at about 46 µM; Potency, µM (series often up to 37.8 µM), for inactives: at the top dose activity change, negative = inhibition, most hits filed as inhibitors; 1.8% of 300,000 active; AID 540276; active = well fitted inhibition curve with a large enough effect; inconclusive = small, poorly fitted or top-dose-only effect, or effect the other way; inactive = flat fitted curve, though single readings scatter; tested in HEK293 cells; about a fifth of its hits are not listed in these tables; note: % is set by controls: 0 for no effect and ±100 for the full control effect; luciferase read-out
# SARS PLpro yeast: SARS-CoV PLP inhibition in yeast. 0.19% of 330,000 active. S. cerevisiae expressing SARS-CoV PLpro, growth rescue; control for the full effect not named in the record. Potency, µM (titrated, usually from 32.9 µM), without a hit: at the highest dose activity, positive = growth rescue. AID 485353; active means well fitted rising curve with a large enough effect; inconclusive means small, poorly fitted or top-dose-only effect; inactive means no such curve, though single readings can be large or run the other way; note: 0% is about no effect; nearly all actives have a fitted effect of over 55% in size; growth read by luminescence after 48 h
# StopGo reporter: FMDV 2A StopGo reporter, luciferase signal; human cells with a luciferase reporter of 2A StopGo recoding; control for the full effect not named in the record; Potency, µM (doses to about 57.9 µM), without a hit: at the top dose signal change, negative = less light; 1.2% of 410,000 active; active = well fitted falling curve with a large enough effect; inconclusive = small, poorly fitted or top-dose-only effect; inactive = no such curve, though single readings can be large or run the other way; tested in HEK293T cells; note: % is set by controls: 0 for no effect and ±100 for the full control effect; nearly all actives have a fitted effect of over 45% in size; luciferase light after 4 h
# LASV entry inh: inhibitors of Lassa virus binding or cell entry. Lassa virus pseudotype entry inhibition, cell reporter; control for the full effect not named in the record. Potency, µM (top dose mostly 37.9 µM), without a hit: top-dose activity change, negative = inhibition, most hits filed as inhibitors. 1.2% of 300,000 active. AID 540256; active means well fitted inhibition curve with a large enough effect; inconclusive means small, poorly fitted or top-dose-only effect, or effect the other way; inactive means flat fitted curve, though single readings scatter; tested in HEK293 cells; note: % is set by controls: 0 for no effect and ±100 for the full control effect; nearly all actives have a fitted effect of over 50% in size; luciferase read-out
# NS1 inh: inhibitors of influenza NS1 protein function. S. cerevisiae slowed by influenza A NS1, growth recovery by OD600. Potency, µM (doses to about 46.1 µM), without a hit: at the top dose activity, positive = more growth. 0.4% of 270,000 active. AID 2326; active means well fitted rising curve with a large enough effect; inconclusive means small, poorly fitted or top-dose-only effect; inactive means no such curve, though single readings can be large or run the other way; note: nearly all actives have a fitted effect of over 50% in size
#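 S. cerevisiae expressing influenza A NS1, grown in glucose, washed, then diluted 1:100 into pH 6.0 -URA galactose medium with 23 nl compound. Growth recovery read as OD600; NS1-free strain serves as control.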
# Cruzain inh noDet: inhibitors of Trypanosoma cruzi cruzain without detergent. purified cruzain, Z-FR-AMC fluorescence, no detergent. Potency, µM, without a hit: max response, negative = inhibition, actives largely listed as inhibitors. 2.3% of 200,000 active;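 note: plate controls were enzyme without inhibitor for no effect and buffer without enzyme for full effect; nearly all actives have a fitted effect of over 40% in size; top concentration of the series not given in the record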
# Target sequence (P25779 123-467 limits assumed): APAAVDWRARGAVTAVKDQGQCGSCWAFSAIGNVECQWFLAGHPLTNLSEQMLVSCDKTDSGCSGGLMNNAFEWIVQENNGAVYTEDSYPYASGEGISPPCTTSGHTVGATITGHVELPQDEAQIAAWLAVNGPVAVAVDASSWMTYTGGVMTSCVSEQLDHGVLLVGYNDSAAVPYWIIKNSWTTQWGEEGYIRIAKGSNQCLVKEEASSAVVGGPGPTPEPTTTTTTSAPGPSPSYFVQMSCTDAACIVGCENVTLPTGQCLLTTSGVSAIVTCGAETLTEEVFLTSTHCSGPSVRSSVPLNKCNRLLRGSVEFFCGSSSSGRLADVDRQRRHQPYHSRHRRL
#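 Purified cruzain at 1.5 nM, pre-incubated 15 min with compound at room temperature in 100 mM sodium acetate pH 5.5, 5 mM DTT, 0.00005% Triton X-100. Reaction started with 2 uM Z-FR-AMC; AMC fluorescence increase over 60 s gives rate.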
# RE007 growth inh: less growth of the S. pombe RE007 Vpr strain; S. pombe RE007 Vpr strain, BacTiter-Glo ATP luminescence, 24 h; control for the full effect not named in the record; Potency, µM (series often up to 92.2 µM), for inactives: at the top dose activity change, negative = less growth; 0.21% of 360,000 active; AID 651644; active = well fitted falling curve with a large enough effect; inconclusive = small, poorly fitted or top-dose-only effect; inactive = no such curve, though single readings can be large or run the other way;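 note: % is set by controls: 0 for no effect and ±100 for the full control effect; nearly all actives have a fitted effect of over 50% in size; the assay follows cell death caused by Vpr and the record does not say whether a fall means rescue or toxicity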
#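 Fission yeast RE007 carrying one integrated HIV-1 vpr copy, seeded at OD 0.01 in PMG+AL medium with 23 nL pinned compound. Grown 24 h at 30 degrees; viability read by BacTiter-Glo luminescence after 5 min.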
# Cruzain Triton: cruzain (T. cruzi) inhibition with detergent | purified cruzain, Z-FR-AMC fluorescence, 0.01% Triton | AID 1478 | P25779 | 0.43% of 200,000 active | Potency, µM, without a hit: max response, negative = inhibition, usual class: inhibitors;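 note: plate controls were neutral wells for no effect and buffer without enzyme for full effect; nearly all actives have a fitted effect of over 40% in size; top concentration of the series not given in the record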
#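 Steps: dispense cruzain (1.5 nM final) in acetate buffer pH 5.5 with DTT and 0.01% Triton X-100; pin-transfer compounds; incubate 15 min RT; add Z-FR-AMC (2 uM final); read fluorescence every 30 s, using the 60 s intensity change.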
# * hit, by the source's call; ? = inconclusive; nt = no result given; & = joins results of further samples; [ ] = another dose, or the depositor's remark. Unless noted, calls come from the whole dose curve; as a rule, active = well fitted curve in the direction sought with a large enough effect; inconclusive = small, poorly fitted or top-dose-only effect, or another doubt; inactive = no such curve, though single readings can be large; an effect the other way counts as inactive or inconclusive. Potency is the fitted concentration of half-maximal effect. Outcome played no part in choosing rows. About 4.7% of those tested had a hit in this group.
SMILES,MARV entry inh,SARS PLpro yeast,StopGo reporter,LASV entry inh,NS1 inh,Cruzain inh noDet,RE007 growth inh,Cruzain Triton
Cc1cccc(CNC(=O)c2cnc3sc(N4CCCCC4)nn3c2=O)c1,nt,nt,-34%,-5%[46.1 µM],nt,13%,nt,3.2%
O=C(CC(=O)Nc1ccc(Cl)cc1)N/N=C\c1cccc(F)c1,12%[46.1 µM],2%,-3%,nt,7%,nt,14%,nt
O=C(O)CCC(=O)Nc1sc2c(c1C(=O)NCc1ccccc1)CCCC2,nt,3%,-16%,nt,?,nt,0%,nt
COC(=O)N/N=C\c1ccccc1OC/C=C/c1ccccc1,?,-3%,7%,?,-7%,nt,15%,nt
CC(C)(C)C(=O)Nc1cc(NC(=O)C(C)(C)C)cc(C(=O)Nc2c[nH]c(=O)[nH]c2=O)c1,?,nt,-1%,12%,nt,nt,4%,nt
CCc1cccc(NC(=O)C2CCCN(S(=O)(=O)c3cccnc3)C2)c1 (stereo unspecified),nt,-3%,-15%,nt,10%,nt,-15%,nt
Cc1ccc(NS(=O)(=O)N2CCOCC2)cc1,?,2%,-9%,22%[46.1 µM],11%,nt,0%,nt
O=C(Nc1nnc(-c2cccs2)o1)c1cc(-c2ccccc2)nc2ccccc12,?,28%,5%,?,13%,-7%,4%,-3.9%
CCCCN(Cc1ccc(C(=O)N[C@H](C(=O)O)C(C)C)cc1)C(=O)C(c1ccccc1)c1ccccc1,-4%,nt,-9%,?,nt,nt,-11%,nt
CN(C(=O)CSc1ccccc1C(=O)O)C1CCCCC1,-4%,0%,nt,6%,-5%,-6%,-1%,1.4%
CCCn1c(CN2CCN(C(=O)OCC)CC2)nc2cc(NC(C)=O)ccc21,nt,0%,-5%,nt,0%,nt,9%,nt
CCC(=O)N1CCc2cc(Br)cc(S(=O)(=O)CCC(=O)NCC3CCCO3)c21 (stereo unspecified),?,-3%,-17%,4%,-5%,2%,-3%,0.9%
CC(=O)C1=C(O)C(=O)N(CCCn2ccnc2)C1c1ccc(Cl)cc1 (stereo unspecified),nt,1%,4%,nt,5%,nt,3%,nt
Cc1ccc(C(=O)NCCNS(=O)(=O)c2ccccc2)cn1,-1%[46.1 µM],0%,-2%,-1%[46.1 µM],-2%,nt,0%,nt
CC(C)c1ccc(N(CC(=O)NC2CCCCC2)C(=O)CNC(=O)c2ccco2)cc1,1%[46.1 µM],7%,-1%,-4%,13%,nt,0%,nt
Cc1[nH]nc(N=CC2=C(O)CC(c3ccco3)CC2=O)c1-c1ccc(Cl)cc1 (stereo unspecified),2%,-17%,-11%,-7%,-2%,?,-14%,-3.8%
Cc1noc(NS(=O)(=O)c2ccc(NC(=O)C(F)(F)F)cc2)c1C,nt,1%,3%,nt,18%,nt,6%,nt
Cc1ccc(N2C(N)=C(C#N)C(c3cc(CN4CCOCC4)cs3)C3=C2CC(C)(C)CC3=O)cc1 (stereo unspecified),-1%[46.1 µM],2%,-2%,nt,nt,nt,-10%,nt
COc1cc(NC(=O)COC(=O)c2n[nH]c3ccccc23)c(C)cc1[N+](=O)[O-],nt,0%,-15%,nt,9%,nt,-2%,nt
CCOc1ccccc1OCCCC(=O)N(CC)CC(=O)Nc1c(F)cccc1F,1%,1%,10%,?,nt,nt,20%,nt
CC(=O)C(Cc1ccccc1)NC(=O)CN(C)Cc1ccccc1Cl (stereo unspecified),?,12%,15%,3%[46.1 µM],6%,nt,-16%,nt
CS(=O)(=O)N1CCCCC1CCN1CCCCC1 (stereo unspecified),6%,nt,-14%,?,nt,nt,-19%,nt
CC(=O)N1CCCC1c1nc2ccccc2n1Cc1cccc(C)c1 (stereo unspecified),3%[46.1 µM],nt,0%,-7%[46.1 µM],nt,0%,nt,-3.5%
CC(C)c1ccc(C(=O)NCCCN2CCOCC2)cc1,nt,3%,32%,nt,2%,nt,12%,nt
COc1ccc(CNC(=O)CCNS(=O)(=O)c2ccc(C)cc2)cc1,0%[46.1 µM],-2%,-3%,3%,1%,-2%,-15%,1.0%
SMILES,MARV entry inh,SARS PLpro yeast,StopGo reporter,LASV entry inh,NS1 inh,Cruzain inh noDet,RE007 growth inh,Cruzain Triton
O=C(NCCc1ccc(F)cc1)NC12CC3CC(CC(C3)C1)C2,nt,-4%,47%[activator],nt,-47%,nt,-4%,nt
COc1ccc(-n2nc(C(=O)NCC(=O)Nc3cccc(Cl)c3)c3ccccc3c2=O)cc1,?,3%,39%,-23%[46.1 µM],?,nt,5%,nt
CCOC(=O)C1(Cc2ccccc2)CCCCCC1=O (stereo unspecified),-1%,nt,-27%,14%,nt,nt,12%,nt
CC1CC(N(C(=O)c2ccco2)c2ccccc2)c2ccccc2N1C(=O)c1ccco1 (stereo unspecified),?,11%,-1%,-25%,-2%,-2%,15%,-0.7%
CCCCCCCC(=O)NC1=NC(=O)C(C)(C)S1,nt,0%,3%,nt,-10%,nt,3%,nt
COCCCNC(=O)CCc1nc2cccnc2n1Cc1ccc(OC)cc1,10%,1%,20%,-7%[14.3 µM],11%,1%,7%,1.3%
Cc1ccc(C)c(N(CC(=O)NC(C)C)C(=O)CCC(=O)Nc2ccccn2)c1,0%,-5%,-13%,13%,-18%,nt,2%,nt
CCOc1ccccc1-c1nc(-c2ccc(NC(=O)Cc3ccccc3OC)cc2)no1,-23%&-23%,7%,4%,8%,-15%,25µM*,-6%,3.6%
CCN(c1ccc(NC(=O)COC(=O)c2cccs2)cc1)C(C)C,1%[46.1 µM],3%,39%[activator],-5%,2%,-8%,-14%,3.9%
Cc1ccc(S(=O)(=O)N2CCN(c3nccnc3C#N)CC2)cc1,11%[46.1 µM],0%,0%,nt,-1%,nt,2%,nt
COc1ccc(CC(NC(C)=O)C(=O)NC2CCN(C(=O)c3ccc(Cl)cc3)CC2)cc1 (stereo unspecified),?,-1%,-12%,6%[46.1 µM],-11%,nt,4%,nt
Cc1cccc(NCN2C(=O)C3C4C=CC(C4)C3C2=O)c1 (stereo unspecified),10%,-4%,nt,22%,2%,-5%,6%,4.8%
CC(=O)Nc1ccccc1/C=C/c1ccc2c(C)cc(C)c(O)c2n1,9%,-33%,0%,3%,-1%,?,-19%,-2.0%
COc1ccc(C(=O)Nc2ccc(Cl)cc2C(=O)N2CCCC(C)C2)cc1 (stereo unspecified),-10%,5%,17%,-3%,-7%,1%,6%,1.1%
CC(C)C[C@H](NC(=O)NCCC1=CCCCC1)C(=O)O,nt,0%,2%,nt,-3%,nt,-4%,nt
O=C(CCNC(=O)N1CC(=O)Nc2ccccc21)Nc1cccc(Cl)c1,?,-7%,0%,-2%[46.1 µM],-1%,nt,7%,nt
O=C(N=NC(=O)c1ccco1)c1ccc2c(O)n(N3C(=O)c4ccccc4C3=O)c(O)c2c1,?,?,-7%,13%,1%,-4%,6%,-0.5%
Cc1ccc(C)c(-c2nnc(OCC(=O)Nc3cc(C)on3)c3ccccc23)c1,?,-5%,-10%,?,-47%,-5%,32%,-9.9%
COc1ccc(-c2nc(SCC(=O)Nc3ccc4c(c3)OCO4)c(-c3ccccc3)[nH]2)cc1,9%[46.1 µM],nt,6%,7%[46.1 µM],nt,?,nt,-6.7%
Cc1ccc(NC(=O)c2c3c(nc4ccccc24)CCC3)cc1S(=O)(=O)N(C)C,-1%[46.1 µM],-2%,?,8%[46.1 µM],nt,nt,-26%,nt
Cc1nnsc1NC(=O)OCc1ccc(C(C)(C)C)cc1,?,-2%,?,?,-33%,13%,7%,-2.6%
COC(=O)c1ccc(C2/C(=C(\O)c3ccc4c(c3)OCCO4)C(=O)C(=O)N2c2nnc(C)s2)cc1 (stereo unspecified),nt,?,-24%,nt,?,nt,1%,nt
CC(=O)Nc1ccc(N(CC(O)Cn2c3ccccc3c3ccccc32)S(=O)(=O)c2ccc(C)cc2)cc1 (stereo unspecified),?,19%,?,11µM*,?,?,5%,1.2%
CC(CCl)OC(C)CCl (stereo unspecified),nt,0%,-19%,nt,nt,2%,1%,2.1%
CS(=O)(=O)Cc1cccc(C(=O)NC2CCSc3ccccc32)c1 (stereo unspecified),2%,6%,0%,?,?,nt,2%,nt

# Retrieved by compound from the entries so far, 3 records:
SMILES,MARV entry inh,SARS PLpro yeast,StopGo reporter,LASV entry inh,NS1 inh,Cruzain inh noDet,RE007 growth inh,Cruzain Triton
COc1ccc(C(=O)Nc2ccc(Cl)cc2C(=O)N2CCCC(C)C2)cc1 (stereo unspecified),-10%,5%,17%,-3%,-7%,1%,6%,1.1%
CC(=O)Nc1ccccc1/C=C/c1ccc2c(C)cc(C)c(O)c2n1,9%,-33%,0%,3%,-1%,?,-19%,-2.0%
Cc1cccc(NCN2C(=O)C3C4C=CC(C4)C3C2=O)c1 (stereo unspecified),10%,-4%,nt,22%,2%,-5%,6%,4.8%

# The listing continues:
SMILES,MARV entry inh,SARS PLpro yeast,StopGo reporter,LASV entry inh,NS1 inh,Cruzain inh noDet,RE007 growth inh,Cruzain Triton
Cc1cccc(-c2oc(C)c(C)[n+]2[O-])c1,-5%,-24%,27%,?,5%,8%,-8%,-2.3%
CCOC(=O)N1CCN(c2ccc(N3C(=O)CCCC3=O)cc2[N+](=O)[O-])CC1,6%[46.1 µM],1%,-18%,-3%,nt,nt,-5%,nt
Cc1cc(O)c(CN2CCN(c3ccccc3)CC2)cc1C,-1%[46.1 µM],1%,-24%,-2%,1%,-10%,-1%,1.2%
O=C1C2=C(C(c3ccccc3)=NCCN2)C(c2cccc([N+](=O)[O-])c2)N1c1ccccc1 (stereo unspecified),?,-11%,-13%,?,nt,nt,8%,nt
Cc1ccc2cccc(S(=O)(=O)Nc3c(C)n(C)n(-c4ccccc4)c3=O)c2n1,-18%,3%,10%,17%,6%,-4%,-6%,3.2%
Cn1cc(S(=O)(=O)Nc2ccc(Oc3ccccc3)cc2)c(=O)n(C)c1=O,2%,-5%,-11%,-4%,3%,nt,1%,nt
Cc1nc2cc(CO)ccc2s1,-16%,10%,-2%,2%,1%,5%,-7%,3.0%
